Screening results: PubChem BioAssay, National Center for Advancing Translational Sciences (NCATS)
SARS PLP yeast = inhibitors of SARS-CoV papain-like protease in yeast; S. cerevisiae expressing SARS-CoV PLpro, growth rescue; control for the full effect not named in the record; Potency, µM (highest dose often 32.9 µM), for the others: top-dose activity, positive = growth rescue; 330,000 compounds, 0.19% hits; further: 0% is about no effect; nearly all actives have a fitted effect of over 55% in size; growth read by luminescence after 48 h
Cruzain noTriton = cruzain (T. cruzi) inhibition without detergent; purified cruzain, Z-FR-AMC fluorescence, no detergent; Potency, µM, inactives show max response, negative = inhibition, actives largely listed as inhibitors; P25779; 200,000 compounds, 2.3% hits; AID 1476; active means well fitted curve in the direction sought with a large enough effect; inconclusive means small, poorly fitted or top-dose-only effect, or another doubt; inactive means no such curve, though single readings can be large; an effect the other way counts as inactive or inconclusive;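 further: plate controls were enzyme without inhibitor for no effect and buffer without enzyme for full effect; nearly all actives have a fitted effect of over 40% in size; top concentration of the series not given in the record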
Target sequence (P25779 123-467 limits assumed): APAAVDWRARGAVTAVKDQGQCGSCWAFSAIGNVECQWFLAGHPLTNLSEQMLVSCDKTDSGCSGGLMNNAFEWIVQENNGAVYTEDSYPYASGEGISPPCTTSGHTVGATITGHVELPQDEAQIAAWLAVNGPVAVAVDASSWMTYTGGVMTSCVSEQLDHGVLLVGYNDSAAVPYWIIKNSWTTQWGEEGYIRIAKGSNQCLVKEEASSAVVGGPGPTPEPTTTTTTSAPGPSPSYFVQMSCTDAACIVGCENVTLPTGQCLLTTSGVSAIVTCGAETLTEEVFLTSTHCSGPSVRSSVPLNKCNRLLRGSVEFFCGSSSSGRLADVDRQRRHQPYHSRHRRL
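Detergent-free condition (0.00005% Triton X-100) in acetate buffer pH 5.5 with DTT. 1.5 nM enzyme and compound were pre-mixed 15 min, then 2 uM Z-FR-AMC substrate added; reaction progress from fluorescence change between first and third reads (60 s).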
StopGo reporter = lowers the luciferase signal of an FMDV 2A StopGo reporter; AID 1159524; human cells with a luciferase reporter of 2A StopGo recoding; control for the full effect not named in the record; Potency, µM (doses to about 57.9 µM), inactives show at the top dose signal change, negative = less light; 410,000 compounds, 1.2% hits; active = well fitted falling curve with a large enough effect; inconclusive = small, poorly fitted or top-dose-only effect; inactive = no such curve, though single readings can be large or run the other way; tested in HEK293T cells; further: on the % scale 0 is the no-effect control and ±100 the full control effect; nearly all actives have a fitted effect of over 45% in size; luciferase light after 4 h
NS1 inh = blocks influenza NS1 protein function | S. cerevisiae slowed by influenza A NS1, growth recovery by OD600 | Potency, µM (doses to about 46.1 µM), without a hit: top-dose activity, positive = more growth | 270,000 compounds, 0.4% hits | AID 2326; further: actives are rising curves; nearly all actives have a fitted effect of over 50% in size
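Read-out: OD600 growth recovery of NS1-expressing budding yeast. Cells grown overnight at 30C in -URA glucose medium, washed, resuspended and diluted 1:100 in 2% galactose assay medium, pH 6.0. Same strain lacking NS1 served as positive control.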
LASV entry inh = inhibitors of Lassa virus binding or cell entry; Lassa virus pseudotype entry inhibition, cell reporter; control for the full effect not named in the record; Potency, µM (top dose mostly 37.9 µM), inactives show at the highest dose activity change, negative = inhibition, usual class: inhibitors; 300,000 compounds, 1.2% hits; AID 540256; active means well fitted inhibition curve with a large enough effect; inconclusive means small, poorly fitted or top-dose-only effect, or effect the other way; inactive means flat fitted curve, though single readings scatter; tested in HEK293 cells; further: on the % scale 0 is the no-effect control and ±100 the full control effect; nearly all actives have a fitted effect of over 50% in size; luciferase read-out
Marburg entry inh = blocks Marburg virus binding to or entry into cells; 300,000 compounds, 1.8% hits; Potency, µM (series often up to 37.8 µM), without a hit: at the highest dose activity change, negative = inhibition, hits mostly inhibitors; Marburg virus pseudotyped entry inhibition, cell reporter; control for the full effect not named in the record; about a third of the inactives were read at about 46 µM; active = well fitted inhibition curve with a large enough effect; inconclusive = small, poorly fitted or top-dose-only effect, or effect the other way; inactive = flat fitted curve, though single readings scatter; tested in HEK293 cells; about a fifth of its hits are not listed in these tables; further: on the % scale 0 is the no-effect control and ±100 the full control effect; luciferase read-out
RE007 growth inh = less growth of the S. pombe RE007 Vpr strain; S. pombe RE007 Vpr strain, BacTiter-Glo ATP luminescence, 24 h; control for the full effect not named in the record; Potency, µM (doses to about 92.2 µM), for inactives: at the highest dose activity change, negative = less growth; 360,000 compounds, 0.21% hits; active = well fitted falling curve with a large enough effect; inconclusive = small, poorly fitted or top-dose-only effect; inactive = no such curve, though single readings can be large or run the other way;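 further: on the % scale 0 is the no-effect control and ±100 the full control effect; nearly all actives have a fitted effect of over 50% in size; the assay follows cell death caused by Vpr and the record does not say whether a fall means rescue or toxicity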
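Fission yeast strain RE007, carrying one chromosomally integrated HIV-1 vpr copy, was seeded at OD 0.01 in PMG+AL medium with 23 nL pinned compound. After 24 h at 30 °C and 99% humidity, viability was read by BacTiter-Glo luminescence.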
Cruzain inh Det = inhibitors of Trypanosoma cruzi cruzain with detergent; P25779; purified cruzain, Z-FR-AMC fluorescence, 0.01% Triton; Potency, µM, for the others: max response, negative = inhibition, usual class: inhibitors; 200,000 compounds, 0.43% hits; AID 1478; active means well fitted curve in the direction sought with a large enough effect; inconclusive means small, poorly fitted or top-dose-only effect, or another doubt; inactive means no such curve, though single readings can be large; an effect the other way counts as inactive or inconclusive;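 further: plate controls were neutral wells for no effect and buffer without enzyme for full effect; nearly all actives have a fitted effect of over 40% in size; top concentration of the series not given in the record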
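Detergent-containing arm of a paired screen for aggregation-based inhibition: 0.01% Triton X-100 present. Cruzain at 1.5 nM cleaved 2 uM Z-FR-AMC at pH 5.5 with 5 mM DTT; AMC fluorescence gain over 60 s measured activity.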
An asterisk follows results filed as active; ? = inconclusive; . = no result given; & = joins results of further samples; [ ] = dose if it differs, or a comment. Unless noted, the call rests on the fitted dose curve; in most records, active means well fitted rising curve with a large enough effect; inconclusive means small, poorly fitted or top-dose-only effect; inactive means no such curve, though single readings can be large or run the other way. Potency means the concentration at half of the fitted maximal effect.

canonical_smiles	Cruzain noTriton	LASV entry inh	Cruzain inh Det	NS1 inh	StopGo reporter	SARS PLP yeast	RE007 growth inh	Marburg entry inh
C/C(=N\Nc1ccc(C(=O)O)cc1)c1ccc(S(=O)(=O)NCc2ccco2)cc1	.	.	.	-1%	0%	0%	19%	.
CCOC(=O)N/N=C(/C)c1ccc(N2C(=O)C3CCCCC3C2=O)cc1 (centres undefined)	.	?	.	.	-1%	2%	0%	4%
Cc1onc(-c2ccccc2Cl)c1C(=O)N1CCN(C(=O)c2ccco2)CC1	5%	?	3.2%	-8%	-5%	-8%	-3%	1%
O=C(CCS(=O)(=O)c1ccc(F)cc1)Nc1nnc(-c2ccco2)o1	.	-1%	.	.	-13%	-2%	2%	?
Cc1ccc(-n2c(=O)c3ccc(C(=O)NCc4ccco4)cc3n(Cc3cccc(Cl)c3)c2=O)cc1	?	7%[46.1 µM]	-1.4%	.	-13%	.	.	?
CSc1ccc(S(=O)(=O)N2CCC(C(=O)N3CCc4ccccc4C3)CC2)cc1	.	?	.	-11%	0%	0%	-5%	?
COc1cc(OC)cc(-c2nn[nH]n2)c1	-1%	-1%	-0.8%	5%	0%	8%	0%	13%
CC1CC(=O)Nc2ccccc2N1C(=O)CN1C(=O)C(=O)N(C)C1=O (centres undefined)	.	19%[46.1 µM]	.	.	-4%	-3%	-8%	-3%[46.1 µM]
COc1ccc(-c2ccc(SCC(=O)NC3CCCCC3)nn2)cc1	.	1%	.	14%	27%	8%	5%	4%[46.1 µM]
C/C(Cc1ccccc1)=N\NC(=O)CNC(=O)/C=C\c1ccccc1	.	3%	.	3%	-19%	-1%	-24%	-1%[14.2 µM]
O=C(NCCN1CCOCC1)c1cc(-c2ccc(Cl)cc2Cl)on1	.	.	.	-5%	35%[activator]	-11%	10%	10%[46.1 µM]
CC(C)c1ccc(C(=O)Nc2cccc3cccnc23)cc1	-13%	10%[46.1 µM]	-6.5%	.	24%	.	.	32%[46.1 µM]
CC1CN(CC(O)COc2ccc(C#N)cc2)CCN1CC(O)COc1ccc(C#N)cc1 (centres undefined)	.	.	.	2%	?	-2%	3%	?
O=C(Nc1ccccc1)c1ccc2ccccc2n1	.	.	.	-3%	8%	-3%	-12%	.
C[N+](C)(C)CCCCCC[N+](C)(C)C	8%&5%&3%&-2%	-6%&-7%	5.7%&4.5%&5.9%&2.8%	0%&-4%	-24%&-10%	.	-6%[18.4 µM]	?
Cc1nn(-c2ccccc2)nc1-c1nnc(-c2ccc(C(F)(F)F)cc2)o1	.	-4%	.	-2%	0%	0%	27%	?
CCN(CC)c1ccc(CNC23CN4CN(CN(C4)C2)C3)cc1	7%	-14%	2.3%	-4%	10%	4%	-8%	2%
COc1ccc(OC(=O)/C=C/c2ccc([N+](=O)[O-])cc2)cc1	.	7%[46.1 µM]	.	-1%	1%	0%	-7%	22%[46.1 µM]
Cc1noc(C)c1C(=O)OCC(=O)NC(=O)NC12CC3CC(CC(C3)C1)C2	-16%	-16%	4.9%	-9%	-24%	4%	0%	?
O=[N+]([O-])c1ccccc1NC1CCN(Cc2ccccc2)CC1	.	?	.	-4%	22%	-2%	-12%	?
Cc1cc(NC(=O)CN2CCN(C/C=C/c3ccccc3)CC2)c([N+](=O)[O-])cc1C	3%	7%	-2.0%	-3%	-7%	-9%	-12%	?
CCOC(=O)c1nn(-c2ccc3c(c2)OCO3)cc1O	-5%	17%	0.1%	-19%	46%[activator]	1%	-27%	-24%
CS(=O)(=O)N1CCc2cc(C(=O)N3CCOCC3)ccc21	3%	-2%	5.1%	6%	-3%	-2%	-6%	-15%
O=C1c2ccccc2C(=O)C12OC2c1ccc(Cl)cc1 (centres undefined)	3%	-22%	-4.2%	-19%	.	-21%	.	-15%
CCOc1cc(N2CCOCC2)c(OCC)cc1NC(=O)CN1CCc2ccccc2C1	?	-53%	4.4%	-38%	-4%	0%	3%	-20%&-20%
O=S(=O)(Nc1cccc(Oc2ccc(Cl)cc2)n1)c1ccc(F)cc1	.	-1%[46.1 µM]	.	-4%	-4%	-4%	3%	-25%[46.1 µM]
O=C1/C(=C/c2cccs2)Cc2ccccc21	-9%	20%	-11%	-14%	34%[activator]	-25%	?	3%
COc1ccccc1C(=O)N1CCN(S(=O)(=O)c2ccccc2)CC1	-1%	-4%	1.3%	-16%	0%	0%	9%	-9%
O=C(Nc1cccc(Cl)c1)N1CCCCCC1	.	2%	.	-19%	80%[activator]	-3%	-3%	2%
Cc1cnc(C(=O)NC(Cc2ccccc2)c2ccccc2)cn1 (centres undefined)	.	18%[46.1 µM]	.	3%	14%	1%	5%	4%[46.1 µM]
COCCNC(=O)CSc1nc(-c2ccccc2C)nc2c1c(=O)n(C)c(=O)n2C	17%	-27%[46.1 µM]	1.3%	.	-16%	.	.	.
CCc1ccc2oc(-c3ccc(OC)cc3)cc(=Nc3cccc(C(=O)O)c3)c2c1	.	?	.	.	-14%	-10%	-22%	?
COc1cc2c(C(=O)O)c(C)n(CC(C)C)c2c2ccccc12	4%	-22%	-2.7%	-4%	2%	-7%	1%	8%
COc1ccc(OC)c(NC(=O)CSc2nnc(-c3ccncc3)s2)c1	.	-19%	.	6%	-21%	2%	-3%	-30%
O=C(c1cccs1)N(Cc1ccco1)c1nc(-c2ccc(F)cc2)cs1	-22%	?	-7.8%	10%	?	3%	5%	-10%
c1ccc2c(c1)ncn2-c1ncnc2sc3c(c12)CCCC3	4%	4%	-3.4%	-42%	0%	3%	12%	3%
CCCOCC1CC2(CC(C)(c3csc(N)n3)OC2=O)C(=O)O1 (centres undefined)	-9%	0%	0.3%	6%	6%	-21%	-20%	-8%
COc1ccc(CCNC(=S)NCCc2ccc(OC)c(OC)c2)cc1OC	.	?	.	0%	?	0%	-16%&11%	?
Cc1cc(=O)[nH]c(/N=C(\N)Nc2ccc3c(c2)OCCO3)n1	.	-11%	.	2%	-4%	0%	10%	-14%[46.1 µM]
O=C(c1cccs1)N1CCN(C(=O)c2cn(-c3ccccc3)nc2-c2ccccc2)CC1	.	?	.	.	26%	-4%	10%	?
O=C(NC1CCCCC1)c1ccc2c(c1)N(Cc1cccc(Cl)c1)C(=O)c1ccccc1S2(=O)=O	?	1%[46.1 µM]	-2.9%	.	-9%	.	.	.
O=C(NCc1ccccc1F)C1CCCN(S(=O)(=O)N2CCOCC2)C1 (centres undefined)	.	15%[46.1 µM]	.	-4%	-1%	20%	-4%	16%[46.1 µM]
COc1ccccc1C(=O)n1nc(-c2cccnc2)nc1N	-7%	4%	-0.2%	-7%	-12%	5%	-4%	3%
COc1cc2c(cc1OC)C1=C(C#N)CCC(=NC(=O)c3ccc(Cl)cc3)N1CC2	-4%	0%	0.0%	-10%	-20%	7%	29%	2%
COc1ccc(NC(=S)N(CCN2CCOCC2)Cc2ccccc2F)cc1	.	?	.	.	14%	-4%	10%	?
O=c1[nH]c(=O)n(C2CCCCCC2)c(O)c1C=NC1CCN(Cc2ccccc2)CC1	4%	-26%	0.7%	-5%	-26%	-2%	-3%	?
CS(=O)(=O)N1CCN(C(=O)c2cc(-c3cccs3)nc3ccccc23)CC1	?	1%	-11%	-13%	-21%	?	-10%	-2%[46.1 µM]
O=C(CCC(=O)c1cccs1)OCc1nc2ccccc2s1	3%	-20%	-4.3%	-25%	-3%	3%	-10%	2%
CC(C)NC(=O)NS(=O)(=O)c1cnccc1N1CCCCC1	-7%	10%	-0.7%	-2%[9.22 µM]	-17%	9%	-4%	0%
O=c1oc2ccccc2c(N2CCCCC2)c1CN1CCCCC1	5%	7%	-5.4%	-20%	-3%	-24%	?	5%

(next part)
canonical_smiles	Cruzain noTriton	LASV entry inh	Cruzain inh Det	NS1 inh	StopGo reporter	SARS PLP yeast	RE007 growth inh	Marburg entry inh
O=C(NCCc1ccco1)c1nn(Cc2ccccc2)c(=O)c2ccccc12	-13%	-4%	0.8%	?	-21%	5%	12%	-20%
CCOC(=O)C1(Cc2ccc(OC)cc2)CCN(C(=O)CN2CCN(CC)CC2)CC1	.	-3%[46.1 µM]	.	0%	13%	1%	16%	4%[46.1 µM]
O=C(c1ccccc1Br)N1CCN(c2ccccc2)CC1	5%	-22%	-7.2%	-8%	-23%	10%	1%	?
COC(=O)CNC(=O)CCC(=O)N1CCN(C(c2ccccc2)c2ccccc2)CC1	.	26%	.	-21%	-3%	-2%	-25%	-23%
Cc1ccc(/C=C2\SC(=S)N(CCCC(=O)Nc3cc(C)on3)C2=O)cc1	.	?	.	8%	?	4%	10%	-26%[46.1 µM]
COCCCN1C(=O)c2oc3ccccc3c(=O)c2C12C(=O)N(C)c1ccccc12 (centres undefined)	-5%	2%[46.1 µM]	-1.9%	.	-8%	.	.	-6%[46.1 µM]
COc1ccc(CN2CCNC(=O)C2CC(=O)NCCCn2cccn2)c(OC)c1 (centres undefined)	.	3%	.	0%	-7%	1%	3%	?
Cc1cccc(N2CCN(S(=O)(=O)c3ccc4c(c3)CCN4C(=O)CCC(=O)O)CC2)c1C	26%	-10%	3.2%	-7%	-18%	-3%	-1%	0%
COc1ccc(NC(=O)c2c(C)oc3ccc(O)c(CN4CCOCC4)c23)cc1	-21%	-12%[46.1 µM]	-5.9%	.	-20%	.	.	?
Cc1ccc(C(=O)NNC(=O)c2nn(-c3ccc(F)cc3)ccc2=O)cc1	.	-2%[46.1 µM]	.	6%	7%	1%	2%	-5%[46.1 µM]
COc1ccc2nc(NC(=O)CCc3nc(C4=CCN(C)CC4)no3)sc2c1	-9%	.	-2.8%	?	11%	5%	-2%	.
